# Screening data (PubChem)
# rRNA inh HTS: reduced GFP signal of wild-type E. coli, primary screen, bacterial rRNA inhibitor project, GFP/RFP fluorescence, OD600, single point; E. coli WT GFP vs humanized-ribosome RFP mutants, 24 h; active compounds read low; DMSO median 0, no signal -100; GFP signal change (wild-type ribosome), % (test concentration not listed); 350,000 compounds, 1.6% hits; AID 720706, 2013;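 active = significant combined selectivity score with lowered wild-type GFP, culture density cut under 30%, mutant RFP and density less affected; inactive = any of these conditions unmet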; also: one replicate is shown; some compounds called inactive have numbers as strong as hits
# rRNA inh HTS OD600: also measured in rRNA inh HTS; calls as there; OD600 change, %; measured here: OD600 growth;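 optical density of the mix in the first replicate; 0 = DMSO median and -100 = no signal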
# rRNA inh HTS RFP: second read-out of rRNA inh HTS, no call of its own (marks repeat the call); RFP signal change, %; measured here: RFP humanized mutant strains;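 first replicate; 0 = DMSO median and -100 = no signal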
# The depositor's hits bear a star. These rows are one share of the data. The share of hits here may be higher or lower than overall.
rRNA inh HTS,rRNA inh HTS RFP,rRNA inh HTS OD600,Molecule
2.8,2.9,-2.0,CCCC#Cc1cnc2c(c1)C(=O)N([C@H](C)CO)C[C@H](C)[C@@H](CN(C)Cc1ccccc1F)O2
3.3,0.1,6.3,COCC(=O)N1[C@H](CNC(=O)c2ccccn2)[C@H](c2ccccc2)[C@@H]1CO
6.2,-4.6,20.8,C[C@@H]1CN([C@@H](C)CO)C(=O)c2cc(Br)cnc2O[C@@H]1CN(C)C(=O)C1CC1
0.1,-3.0,3.7,Cc1noc(C)c1S(=O)(=O)Nc1ccc2c(c1)C(=O)N([C@H](C)CO)C[C@@H](C)[C@H](CN(C)C(=O)Nc1ccc(F)cc1)O2
-2.4,5.6,-11.3,CO[C@H]1CN(C)C(=O)c2ccc(NC(=O)c3nc4ccccc4s3)cc2OC[C@@H](C)N(Cc2cccnc2)C[C@@H]1C
-10.8,1.9,-10.5,C[C@H]1CC=CC[C@H](c2ccc(F)cc2)NC(=O)[C@@H](Cc2ccccc2)N(C)C(=O)c2ccccc2O1 (mixture of isomers)
-4.3,2.6,3.8,C[C@H]1CCCCO[C@@H](CN(C)C(=O)Nc2ccccc2)[C@@H](C)CN([C@@H](C)CO)C(=O)c2cc(NS(=O)(=O)c3ccc(F)cc3)ccc2O1
-3.2,-2.4,-7.6,CC(C)CC#Cc1ccc2c(c1)O[C@@H](CN(C)C(=O)c1cnccn1)[C@H](C)CN([C@H](C)CO)S2(=O)=O
1.4,0.0,1.0,CCCC(=O)Nc1ccc2c(c1)OC[C@H](C)N(CCc1ccccc1)C[C@@H](C)[C@@H](OC)CN(C)C2=O
1.9,-2.4,6.9,CO[C@H]1CC[C@@H]2CCN(C)C(=O)[C@@H](C)N(C)C(=O)c3cc(C#N)ccc3OC[C@H]1O2
-0.2,0.1,-4.2,CCC(=O)N1C[C@@H](C)[C@@H](OC)CN(C)C(=O)c2ccc(NC(=O)c3cc(C)on3)cc2OC[C@H]1C
-0.6,-2.2,-7.3,CC(C)NC(=O)N(C)C[C@@H]1Oc2c(cccc2N(C)C)C(=O)N(C)C[C@H]1C
2.4,0.0,6.4,C[C@@H]1CN([C@@H](C)CO)C(=O)c2cccc(NC(=O)Nc3ccc(F)cc3)c2O[C@H]1CN(C)S(=O)(=O)c1ccc(F)cc1
1.6,-0.3,-1.9,CNC[C@H]1Oc2ccc(NC(=O)Nc3cccc4ccccc34)cc2CC(=O)N([C@@H](C)CO)C[C@H]1C
0.4,-2.4,10.4,O=C1N[C@H](c2ccccc2)COCc2cn(nn2)CC[C@H]1Cc1cccc(Cl)c1
0.1,-2.7,4.5,CCC(=O)N1CC[C@H]2[C@H](CO)Nc3ccc(C#Cc4cccc(OC)c4)cc3[C@H]21
3.4,0.6,4.5,C[C@@H]1CN([C@@H](C)CO)C(=O)c2cc(C#CC3CC3)cnc2O[C@H]1CN(C)C(=O)c1ccncc1
-0.8,0.6,1.7,Cc1noc(C)c1NC(=O)Nc1cccc2c1O[C@H](CN(C)C(=O)Nc1ccc(F)cc1)[C@H](C)CN([C@@H](C)CO)C2=O
-8.1,5.1,-25.5,C[C@@H]1CN([C@@H](C)CO)C(=O)c2cccc(NC(=O)c3cnccn3)c2O[C@H]1CN(C)Cc1ccc(Oc2ccccc2)cc1
-0.6,-0.9,-6.0,CC(=O)Nc1ccc2c(c1)C(=O)N(C)C[C@H](C)[C@@H](CN(C)C(=O)OC(C)(C)C)O2
5.6,0.6,9.3,C[C@@H]1COCn2nncc2CC[C@@H](Cc2ccccc2)C(=O)N1
0.5,-0.3,2.3,CNC[C@H]1Oc2ccc(NC(C)=O)cc2C(=O)N(C)C[C@H]1C
-2.8,4.7,5.6,COc1ccc2c3c([nH]c2c1)[C@H](CO)NCC31CCN(C(=O)Nc2ccc(F)cc2)CC1
3.7,-2.6,5.7,CCN(C[C@@H]1[C@@H](c2ccccc2)[C@H](CO)N1S(C)(=O)=O)C(=O)C1CCC1
-4.5,-2.3,1.1,C[C@@H]1CN([C@H](C)CO)S(=O)(=O)c2ccc(-c3ccncc3)cc2O[C@H]1CN(C)C(=O)C1CCC1
1.7,-2.0,5.1,COc1ccc2c3c(n(C)c2c1)[C@H](CO)N(Cc1nccs1)CC31CCN(C)CC1
-0.4,-4.6,-4.2,CC(C)C[C@H]1COCc2cn(nn2)CC[C@H](Cc2cccc(Cl)c2)C(=O)N1
-5.8,3.0,0.6,CN(C)C(=O)c1cccc(-c2ccc3c(c2)[C@H]2[C@H](CCN2C(=O)c2cccc(F)c2)[C@@H](CO)N3C)c1
-3.8,5.9,1.1,COc1cccc(-c2cnc3c(c2)C(=O)N([C@H](C)CO)C[C@H](C)[C@H](CN(C)S(=O)(=O)c2ccccc2)O3)c1
-6.1,21.4,-42.4,CC(C)CC#Cc1ccc([C@@H]2[C@@H](CO)N3C(=O)CN(C(=O)c4ccc5c(c4)OCO5)C[C@@H]23)cc1
2.2,1.3,1.2,COCC(=O)Nc1ccc2c(c1)OC[C@@H](C)N(C(=O)C1CCCC1)C[C@@H](C)[C@H](OC)CN(C)C2=O
-16.6,14.9,-13.1,CO[C@@H]1CN(C)C(=O)c2ccc(NC(=O)Nc3cccc(F)c3)cc2OC[C@@H](C)N(C(=O)C2CC2)C[C@H]1C
4.0,2.0,7.6,C[C@H](O)C#Cc1ccc2c(c1)O[C@H](CN(C)CC1CC1)[C@@H](C)CN([C@@H](C)CO)S2(=O)=O
0.2,-1.5,0.7,Cc1cccc(S(=O)(=O)N(C)C[C@@H]2OCc3ccccc3-c3c(n(C)c4ccccc34)C(=O)N([C@H](C)CO)C[C@H]2C)c1
-4.0,4.1,-5.7,C[C@H]1CN([C@@H](C)CO)C(=O)c2cc(NS(=O)(=O)c3cccs3)ccc2O[C@H]1CN(C)S(=O)(=O)c1cccs1
3.1,-1.2,0.9,COc1ccc2c3c(n(C)c2c1)[C@H](CO)N(CC1CC1)CC31CCN(C(C)=O)CC1
0.6,-2.3,5.2,C[C@H](CO)N1C[C@H](C)[C@H](CN(C)C(=O)Nc2ccccc2C(F)(F)F)OCc2cn(nn2)CCCC1=O
-1.8,-2.5,1.1,C[C@@H]1CN([C@H](C)CO)C(=O)Cc2cc(NC(=O)CCC(F)(F)F)ccc2O[C@@H]1CN(C)Cc1ccc2c(c1)OCO2
2.1,-3.7,9.1,CC[C@H]1CC=CC[C@H](C)Oc2ccccc2C(=O)N(C)[C@@H](C)C(=O)N1 (mixture of isomers)
2.5,-1.3,5.4,CC(=O)NC[C@H]1[C@@H](c2ccccc2)[C@@H](CO)N1C(=O)Cc1ccncc1
3.4,-1.3,9.6,C[C@@H]1CCCCO[C@@H](CN(C)Cc2ccc(C(=O)O)cc2)[C@H](C)CN([C@H](C)CO)C(=O)c2cc(N(C)C)ccc2O1
-4.5,3.2,-7.8,CC(C)C#Cc1ccc2c(c1)O[C@H](CN(C)C(=O)C1CCCCC1)[C@@H](C)CN([C@@H](C)CO)S2(=O)=O
-1.4,-3.0,-5.2,CO[C@@H]1CN(C)C(=O)c2cc(NC(=O)Nc3ccccc3F)ccc2OC[C@H](C)N(C(C)=O)C[C@@H]1C
2.6,0.1,0.1,CO[C@@H]1CN(C)C(=O)c2cc(NS(C)(=O)=O)ccc2OC[C@H](C)N(Cc2ccccn2)C[C@@H]1C
-0.9,-1.5,1.9,CCCC(=O)Nc1ccc2c(c1)C(=O)N(C)C[C@@H](OC)[C@@H](C)CN(Cc1ccncc1)[C@@H](C)CO2
-0.8,-0.5,-5.9,CC(C)NC(=O)Nc1ccc2c(c1)C(=O)N([C@H](C)CO)C[C@@H](C)[C@@H](CN(C)C(=O)C1CCCCC1)OCCCC[C@@H](C)O2
-13.9,8.4,-15.2,COc1ccc(NC(=O)Nc2cccc3c2O[C@H](CN(C)Cc2ccc(Cl)c(Cl)c2)[C@H](C)CN([C@@H](C)CO)C3=O)cc1
1.8,-2.0,2.6,C/C=C/c1cnc2c(c1)C(=O)N([C@@H](C)CO)C[C@@H](C)[C@@H](CN(C)Cc1cccc(C(=O)O)c1)O2
-11.7,4.7,-35.4,CCc1cnc(N2[C@H](CO)[C@@H](c3ccccc3-c3ccccc3C)[C@@H]2C#N)s1
1.0,-0.2,12.1,C[C@H]1CN(C)C(=O)Cc2cc(NS(C)(=O)=O)ccc2O[C@@H]1CN(C)S(C)(=O)=O

# Copied from the list.
# C[C@H]1CN(C)C(=O)Cc2cc(NS(C)(=O)=O)ccc2O[C@@H]1CN(C)S(C)(=O)=O – rRNA inh HTS OD600: 12.1
# CC[C@H]1CC=CC[C@H](C)Oc2ccccc2C(=O)N(C)[C@@H](C)C(=O)N1 (mixture of isomers) – rRNA inh HTS OD600: 9.1

# Later entries:
rRNA inh HTS,rRNA inh HTS RFP,rRNA inh HTS OD600,Molecule
2.4,10.6,-13.6,COc1ccc2c3c([nH]c2c1)[C@H](CO)N(C(=O)Nc1ccc(F)cc1)CC31CCN(Cc2nccs2)CC1
6.2,-1.6,23.3,O=C1NCCOCc2cnnn2CC[C@@H]1Cc1ccc(F)cc1
0.5,-2.1,6.4,C[C@@H]1CN([C@@H](C)CO)C(=O)c2cccc(NC(=O)Nc3cccc4ccccc34)c2O[C@H]1CN(C)C(=O)NC1CCCCC1
-1.2,3.5,5.4,COc1cc(CN2CC3(CCN(C)CC3)c3c([nH]c4cc(OC)ccc34)[C@@H]2CO)cc(OC)c1
1.1,-1.3,8.8,C/C=C/c1ccc([C@@H]2[C@@H](CO)N(Cc3nccs3)C23CN(CC2CCCC2)C3)cc1
0.4,0.9,-10.4,Cc1ccc(S(=O)(=O)Nc2ccc3c(c2)CC(=O)N([C@H](C)CO)C[C@@H](C)[C@H](CN(C)Cc2ccc(C(=O)O)cc2)O3)cc1
-8.4,-1.8,-15.6,O=C(C[C@@H]1C=C[C@H](NS(=O)(=O)c2ccccc2)[C@H](CO)O1)NCc1ccc(Cl)c(Cl)c1
0.5,-0.9,5.2,C[C@@H]1CCCCO[C@H](CN(C)C)[C@H](C)CN([C@H](C)CO)C(=O)c2cc(NC(=O)Nc3ccccc3)ccc2O1
5.7,-0.9,2.0,O=C1CCC(=O)N[C@H](c2ccc3c(c2)OCO3)C/C=C\CCN1
6.6,2.1,5.8,C[C@H](CO)N1C[C@H](C)[C@H](CN(C)Cc2ccc(-c3ccccc3)cc2)Oc2ccc(NS(=O)(=O)c3ccc(F)cc3)cc2CC1=O

# Record cards, from the list above. Values in the order: rRNA inh HTS | rRNA inh HTS RFP | rRNA inh HTS OD600
# O=C1CCC(=O)N[C@H](c2ccc3c(c2)OCO3)C/C=C\CCN1 reads 5.7 | -0.9 | 2.0
# C[C@H](CO)N1C[C@H](C)[C@H](CN(C)Cc2ccc(-c3ccccc3)cc2)Oc2ccc(NS(=O)(=O)c3ccc(F)cc3)cc2CC1=O reads 6.6 | 2.1 | 5.8
# COc1cc(CN2CC3(CCN(C)CC3)c3c([nH]c4cc(OC)ccc34)[C@@H]2CO)cc(OC)c1 reads -1.2 | 3.5 | 5.4
# C[C@@H]1CN([C@@H](C)CO)C(=O)c2cccc(NC(=O)Nc3cccc4ccccc34)c2O[C@H]1CN(C)C(=O)NC1CCCCC1 reads 0.5 | -2.1 | 6.4
# O=C(C[C@@H]1C=C[C@H](NS(=O)(=O)c2ccccc2)[C@H](CO)O1)NCc1ccc(Cl)c(Cl)c1 reads -8.4 | -1.8 | -15.6

# Later entries:
rRNA inh HTS,rRNA inh HTS RFP,rRNA inh HTS OD600,Molecule
0.6,0.1,2.4,COc1ccc(C#Cc2ccc([C@@H]3[C@@H](CO)N4C(=O)CN(C(C)=O)C[C@H]34)cc2)cc1
0.7,-3.2,1.0,C[C@@H]1CN([C@H](C)CO)C(=O)c2cc(C#CC(C)(C)O)cnc2O[C@@H]1CN(C)Cc1cccc(F)c1
-4.7,0.2,-10.2,C[C@@H]1CN([C@@H](C)CO)C(=O)CCCn2nncc2CO[C@@H]1CN(C)Cc1cccc(C(F)(F)F)c1
-1.2,16.2,-23.6,CCCC#Cc1ccc([C@H]2[C@@H](CO)N3C(=O)CN(C(=O)Nc4cc(F)ccc4F)C[C@@H]23)cc1
-0.8,-3.0,-2.0,O=C(c1ccccn1)N1C[C@@H]2[C@H](c3ccccc31)[C@@H](CO)N2C(=O)CC1CC1
3.9,1.1,4.1,C[C@@H]1CN([C@@H](C)CO)C(=O)Cc2cc(NC(=O)CCN3CCOCC3)ccc2O[C@@H]1CN(C)C(=O)Nc1ccccc1
-0.3,0.9,-2.7,CC(=O)N1[C@H](CO)[C@@H](c2ccc(-c3ccccc3)cc2)[C@@H]1CNC(=O)C1CC1
-1.0,4.2,-7.9,Cc1noc(C)c1S(=O)(=O)N(C)C[C@@H]1Oc2ccc(NS(=O)(=O)c3ccc(F)cc3)cc2C(=O)N([C@@H](C)CO)C[C@@H]1C
-2.4,3.0,-9.2,COc1ccc([C@H]2CC=CC[C@@H](C)Oc3ccccc3C(=O)N(C)[C@H](C(C)C)C(=O)N2)c(OC)c1 (mixture of isomers)
0.7,0.5,10.8,CC(C)NC(=O)N(C)C[C@H]1Oc2ccc(N(C)C)cc2CC(=O)N(C)C[C@@H]1C
5.6,0.3,7.9,C[C@@H]1CN([C@H](C)CO)S(=O)(=O)c2ccc(C3=CCCCC3)cc2O[C@H]1CN(C)Cc1ccccc1
1.4,-0.7,9.1,C/C=C/c1ccc([C@@H]2[C@@H](CO)N(C(=O)C3CC3)[C@H]2CN(CC)C(C)=O)cc1
-3.4,3.9,-14.6,COCC(=O)N(C)C[C@@H]1Oc2cc(C#CC3CCCC3)ccc2S(=O)(=O)N([C@H](C)CO)C[C@H]1C
5.8,-1.7,12.7,CNC[C@@H]1Oc2ncc(C#Cc3ccccc3F)cc2C(=O)N([C@@H](C)CO)C[C@@H]1C
0.7,-3.3,6.7,C[C@@H]1CN([C@@H](C)CO)C(=O)c2cc(N(C)C)ccc2O[C@@H](C)CCCCO[C@@H]1CN(C)C(=O)CCCN(C)C
